Compound activity (PubChem BioAssay)
Vaccinia inh: blocks a specific stage of Vaccinia orthopoxvirus infection | AID 1053133 | 89,000 compounds, 0.01% hits | Vaccinia-infected cells, mCherry/Venus stage reporter fluorescence; active compounds read low; some inactives read as strong as hits | activity change (mCherry), % (test concentration not listed);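 active means mCherry past -33% and 40 or more points under the early reporter, replicates agreeing; inconclusive means past -33% without that gap or agreement; tested in A549 cells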;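 further: scaled between vehicle wells and reference inhibitor wells; 23 nL library stock went into each well; one replicate is shown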
Vaccinia inh Venus: further read-out of Vaccinia inh, marked with its call; activity change (Venus), %; measured here: Venus reporter, other viral stage;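 negative = less Venus signal; first of two replicates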
* hit, by the source's call; ? = inconclusive; nt = no result given; & = joins results of further samples.

Results follow in this order: Vaccinia inh	Vaccinia inh Venus
C[C@H]1CCCCO[C@H](CN(C)C)[C@@H](C)CN([C@@H](C)CO)C(=O)c2cc(NC(=O)Nc3ccc(C(F)(F)F)cc3)ccc2O1
  ?	nt
C[C@@H]1CCCCO[C@@H](CN(C)Cc2ccccc2)[C@@H](C)CN([C@@H](C)CO)C(=O)c2cc(NC(=O)CCCN(C)C)ccc2O1
  14	7
CCCC(=O)Nc1ccc2c(c1)C(=O)N(C)[C@@H]1CC[C@@H](CC(=O)NCc3ccccc3Cl)O[C@@H]1CO2
  -5	8
CO[C@@H]1CN(C)C(=O)c2ccc(NC(=O)C3CC3)cc2OC[C@H](C)N(C(=O)c2cnccn2)C[C@H]1C
  12	6
CO[C@H]1CN(C)C(=O)c2cc(NC(=O)c3cnccn3)ccc2OC[C@H](C)N(CCc2ccccc2)C[C@@H]1C
  -5	4
COc1ccc(C(=O)Nc2ccc3c(c2)C(=O)N(C)[C@@H]2CC[C@@H](CC(=O)NCC4CC4)O[C@H]2CO3)cc1
  0	-3
C[C@H]1CN([C@@H](C)CO)S(=O)(=O)c2ccc(-c3cccc(C(=O)N(C)C)c3)cc2O[C@@H]1CN(C)C(=O)Cc1ccccn1
  -3	1
C[C@@H]1CN([C@@H](C)CO)C(=O)c2cc(NC(=O)Cc3cn(C)c4ccccc34)ccc2O[C@@H]1CN(C)C(=O)Nc1ccccc1
  -13	-8
COCC(=O)N1CCC2(CC1)CN(C(=O)NC1CCCC1)[C@H](CO)c1c2c2ccc(OC)cc2n1C
  3	2
CC(C)CC#Cc1cnc2c(c1)C(=O)N([C@H](C)CO)C[C@@H](C)[C@H](CN(C)C(=O)c1ccccc1)O2
  -17	-15
O=C(C[C@@H]1CC[C@H]2[C@@H](COC[C@@H](O)CN2Cc2ccccc2F)O1)NCc1ccccc1F
  -9	2
Cc1ccccc1-c1ccc2c(c1)O[C@H](CN(C)Cc1ccc(C(=O)O)cc1)[C@@H](C)CN([C@H](C)CO)S2(=O)=O
  -6	-13
Cc1cccc(CN(C)C[C@@H]2Oc3ncc(-c4ccccc4)cc3C(=O)N([C@H](C)CO)C[C@@H]2C)c1
  ?	nt
O=C(C[C@@H]1C[C@H]2c3cc(NC(=O)CC4CC4)ccc3O[C@H]2[C@H](CO)O1)NCc1cccc(F)c1
  4	6
Cc1ccc(S(=O)(=O)N(C)C[C@@H]2Oc3ccc(NC(=O)NC4CCCCC4)cc3CC(=O)N([C@H](C)CO)C[C@@H]2C)cc1
  ?	nt
CNC[C@H]1Oc2c(NC(=O)Nc3ccccc3)cccc2C(=O)N([C@H](C)CO)C[C@H]1C
  6	5
Cc1ccccc1-c1ccc2c(c1)O[C@H](CN(C)C(=O)Nc1ccc(F)cc1)[C@H](C)CN([C@H](C)CO)S2(=O)=O
  ?	nt
C/C=C/c1ccc([C@@H]2[C@@H](CO)N(C(C)=O)[C@@H]2CN(C)C(=O)c2ccccn2)cc1
  8	7
COc1ccc(CN(C)C[C@@H]2Oc3ccc(NS(=O)(=O)c4cn(C)cn4)cc3CC(=O)N([C@H](C)CO)C[C@H]2C)cc1
  7	4
CCCNC(=O)N(C)C[C@@H]1Oc2cc(-c3cccnc3)ccc2S(=O)(=O)N([C@@H](C)CO)C[C@@H]1C
  10	-1
CO[C@H]1CN(C)C(=O)c2ccc(NS(=O)(=O)c3ccc(Oc4ccccc4)cc3)cc2OC[C@H](C)NC[C@H]1C
  -20	-15
C[C@@H]1CN([C@@H](C)CO)C(=O)c2cc(N(C)C)ccc2O[C@@H](C)CCCCO[C@@H]1CN(C)Cc1ccc2c(c1)OCO2
  -17&8	-29&-8
Cc1noc(C)c1NC(=O)Nc1cccc2c1O[C@H](CN(C)S(=O)(=O)c1cccs1)[C@H](C)CN([C@@H](C)CO)C2=O
  11	14
COc1cccc(S(=O)(=O)N(C)C[C@H]2Oc3ncc(C#CC(C)C)cc3C(=O)N([C@@H](C)CO)C[C@H]2C)c1
  -5	-3
O=C(C1CCOCC1)N1C[C@H]2[C@@H](c3ccccc31)[C@H](CO)N2C(=O)Nc1cccc(F)c1
  0	6
C[C@@H]1CN([C@H](C)CO)C(=O)Cc2cc(NC(=O)Cc3ccccc3)ccc2O[C@@H]1CN(C)C(=O)Nc1ccc(C(F)(F)F)cc1
  2	-2
CCCC#Cc1cnc2c(c1)C(=O)N([C@H](C)CO)C[C@@H](C)[C@H](CN(C)Cc1ccccc1)O2
  -13	-18
Cc1cc(C(=O)Nc2cccc3c2O[C@@H](CN(C)C(=O)Nc2ccc(C(F)(F)F)cc2)[C@@H](C)CN([C@@H](C)CO)C3=O)n(C)n1
  -31	-26
C[C@H](CO)N1C[C@H](C)[C@H](CN(C)C(=O)C2CC2)Oc2cc(C#Cc3ccncc3)ccc2S1(=O)=O
  -4	-8
Cc1noc(C)c1S(=O)(=O)N(C)C[C@H]1OCCCC[C@H](C)Oc2ccc(NS(=O)(=O)c3ccccc3)cc2C(=O)N([C@H](C)CO)C[C@H]1C
  ?	nt

Some values from the results shown:
`C/C=C/c1ccc([C@@H]2[C@@H](CO)N(C(C)=O)[C@@H]2CN(C)C(=O)c2ccccn2)cc1` in Vaccinia inh: 8
`Cc1ccccc1-c1ccc2c(c1)O[C@H](CN(C)Cc1ccc(C(=O)O)cc1)[C@@H](C)CN([C@H](C)CO)S2(=O)=O` in Vaccinia inh: -6
`COc1cccc(S(=O)(=O)N(C)C[C@H]2Oc3ncc(C#CC(C)C)cc3C(=O)N([C@@H](C)CO)C[C@H]2C)c1` in Vaccinia inh: -5
`CCCNC(=O)N(C)C[C@@H]1Oc2cc(-c3cccnc3)ccc2S(=O)(=O)N([C@@H](C)CO)C[C@@H]1C` in Vaccinia inh: 10
`Cc1cc(C(=O)Nc2cccc3c2O[C@@H](CN(C)C(=O)Nc2ccc(C(F)(F)F)cc2)[C@@H](C)CN([C@@H](C)CO)C3=O)n(C)n1` in Vaccinia inh Venus: -26
`CO[C@H]1CN(C)C(=O)c2ccc(NS(=O)(=O)c3ccc(Oc4ccccc4)cc3)cc2OC[C@H](C)NC[C@H]1C` in Vaccinia inh Venus: -15

Other compounds follow.
Results follow in this order: Vaccinia inh	Vaccinia inh Venus
CCCN1[C@@H]2c3ccc(-c4cccnc4)c(=O)n3C[C@@H]2[C@@H](CO)[C@@H]1C(=O)NCCCN1CCOCC1
  -3	-4
Cc1noc(C)c1S(=O)(=O)Nc1ccc2c(c1)C(=O)N([C@H](C)CO)C[C@H](C)[C@@H](CN(C)CC1CCCCC1)O2
  -5	-3
CC(C)C#Cc1cnc2c(c1)C(=O)N([C@H](C)CO)C[C@@H](C)[C@@H](CN(C)C(=O)Cc1ccccn1)O2
  5	8
C[C@H](CO)N1C[C@H](C)[C@@H](CN(C)C(=O)Nc2ccc3c(c2)OCO3)Oc2ccc(NC(=O)C3CCCCC3)cc2C1=O
  5	9
N#C[C@@H]1[C@H](c2ccc(C#CCC3CCCC3)cc2)[C@@H](CO)N1C(=O)c1ccccn1
  -1	-4
CO[C@@H]1CN(C)C(=O)c2ccc(NC(=O)c3ccccc3)cc2OC[C@H](C)N(C(=O)CN(C)C)C[C@@H]1C
  3	11
O=C(N[C@@H]1CC[C@H](CCNC(=O)C2CCOCC2)O[C@@H]1CO)c1ccncc1
  -8	3
COC(=O)C[C@H]1CC[C@H](NS(=O)(=O)c2ccccc2F)[C@H](CO)O1
  8	6
CCC(=O)N1CC2(C1)CN(Cc1nccs1)[C@H](CO)c1c2c2ccc(OC)cc2n1C
  18	14
CN1C(=O)c2cc(NC(=O)c3cnccn3)ccc2OC[C@H]2O[C@@H](CC(=O)NC3CCC3)CC[C@@H]21
  2	-8
COc1ccc(CN(C)C[C@@H]2OCCCC[C@@H](C)Oc3ccc(NC(=O)CCCN(C)C)cc3C(=O)N([C@H](C)CO)C[C@H]2C)cc1
  10	2
COC(=O)c1cn(C[C@H](Cc2ccccc2)NC(=O)Nc2ccccc2)nn1
  1	2
CCNC(=O)[C@H]1[C@H](CO)[C@H]2Cn3c(ccc(-c4ccccc4)c3=O)[C@@H]1N2C(=O)C1CC1
  0	9
Cc1ccccc1S(=O)(=O)N1C[C@H](O)COC[C@@H]2O[C@@H](CC(=O)N3CCC(Cc4ccccc4)CC3)CC[C@H]21
  ?	nt
O=C(NC[C@@H]1N[C@@H](CO)[C@H]1c1ccc(-c2cccnc2)cc1)C1CCCC1
  3	8
CCCC(=O)Nc1ccc2c(c1)OC[C@@H](C)N(C(=O)CC1CC1)C[C@@H](C)[C@@H](OC)CN(C)C2=O
  12	16
O=C(NCCc1ccccc1)[C@H]1[C@H](CO)[C@H]2Cn3c(cccc3=O)[C@H]2N1Cc1ccccc1
  8	3
COc1cccc(-c2ccc3n(c2=O)C[C@@H]2[C@@H](CO)[C@H](C(=O)N(C)C)[C@H]3N2CC2CC2)c1
  1	3
O=C(c1ccccn1)N1CC(=O)N2[C@H](C1)[C@H](c1ccc(-c3cccc(F)c3)cc1)[C@@H]2CO
  11	7
C[C@@H]1CN([C@H](C)CO)C(=O)c2c(c3ccccc3n2C)-c2ccccc2CO[C@H]1CN(C)S(=O)(=O)c1ccccc1F
  ?	nt
C[C@@H]1CN([C@H](C)CO)C(=O)Cc2cc(NC(=O)Nc3ccccc3)ccc2O[C@@H]1CN(C)Cc1ccc(Oc2ccccc2)cc1
  -29	-18
C[C@H]1CN([C@@H](C)CO)C(=O)Cc2cc(NC(=O)Nc3ccc(C(F)(F)F)cc3)ccc2O[C@@H]1CN(C)Cc1ccc(C(=O)O)cc1
  20	16
O=C(C[C@H]1CC[C@@H]2[C@H](COC[C@H](O)CN2S(=O)(=O)c2ccc(Cl)cc2)O1)N[C@H]1CCN(Cc2ccccc2)C1
  ?	nt
CCC(=O)N(C)C[C@@H]1Oc2cc(C#C[C@@H](C)O)ccc2S(=O)(=O)N([C@H](C)CO)C[C@@H]1C
  16	14
COCC(=O)N1[C@@H](CO)[C@H](c2ccc(-c3ccccc3)cc2)C12CN(C(C)=O)C2
  10	3
N#C[C@@H]1[C@H](c2ccccc2-c2cccc(F)c2)[C@H](CO)N1C(=O)c1cccnc1
  3	-4
CO[C@@H]1CN(C)C(=O)c2ccc(NC(=O)c3cccc(F)c3)cc2OC[C@@H](C)N(C)C[C@H]1C
  -2	-5
O=C(C[C@H]1CC[C@@H]2[C@H](COC[C@@H](O)CN2C(=O)c2cnccn2)O1)NCc1ccccc1
  19	17
COc1cccc(-c2cnc3c(c2)C(=O)N([C@@H](C)CO)C[C@@H](C)[C@@H](CN(C)C(=O)CC2CC2)O3)c1
  7	1
O=C(c1ccccc1F)N1CC2(C1)[C@H](c1ccccc1)[C@H](CO)N2CC1CCCC1
  -34	-22

Remaining list, next part:
Results follow in this order: Vaccinia inh	Vaccinia inh Venus
C[C@H](CO)N1C[C@H](C)[C@@H](CN(C)C(=O)[C@H](Cc2ccccc2)N(C)C)OCc2ccccc2-c2c(n(C)c3ccccc23)C1=O
  -17	-13
C[C@@H]1CN([C@@H](C)CO)C(=O)c2cc(NC(=O)C3CCCCC3)ccc2O[C@@H](C)CCCCO[C@H]1CN(C)C(=O)Nc1cccc2ccccc12
  -26	-29
C[C@H](CO)N1C[C@H](C)[C@H](CN(C)S(=O)(=O)c2cccs2)Oc2ncc(-c3ccccc3)cc2C1=O
  15	-2
C[C@@H]1CCCCO[C@H](CN(C)S(=O)(=O)c2ccccc2)[C@@H](C)CN([C@@H](C)CO)C(=O)c2cc(NS(=O)(=O)c3ccc(F)cc3)ccc2O1
  -27	-12
C[C@@H](NC(=O)C[C@@H]1C=C[C@@H](NC(=O)C2CC2)[C@@H](CO)O1)c1ccccc1
  6	1
CC(C)NC(=O)N1[C@H](CO)[C@@H](c2ccc(C#CC3CC3)cc2)[C@@H]1C#N
  5	8
CCCNC(=O)N1[C@@H]2CN(C(=O)C3CCOCC3)c3ccccc3[C@@H]2[C@@H]1CO
  19	8
COc1ccccc1-c1cn(CC[C@H]2CC[C@@H](NC(=O)C3CCCCC3)[C@H](CO)O2)nn1
  -3	-1
CCN1[C@@H]2Cn3c(ccc(-c4cccc(OC)c4)c3=O)[C@H]1[C@@H](C(=O)N(C)C)[C@@H]2CO
  20	15
N#C[C@@H]1[C@@H](c2ccc(-c3cncnc3)cc2)[C@H](CO)N1C(=O)C1CCC1
  7	12
C[C@H](CO)N1C[C@H](C)[C@@H](CN(C)C(=O)c2cnccn2)Oc2ncc(Br)cc2C1=O
  3	-1
Cc1noc(C)c1NC(=O)NCC[C@@H]1CC[C@H](NC(=O)Cc2cccnc2)[C@H](CO)O1
  14	7
CCNC(=O)C[C@@H]1CC[C@H]2[C@H](COc3ccc(NC(=O)NC(C)C)cc3C(=O)N2C)O1
  4	-1
Cc1noc(C)c1S(=O)(=O)Nc1ccc2c(c1)C(=O)N([C@@H](C)CO)C[C@@H](C)[C@H](CN(C)C(=O)NC(C)C)OCCCC[C@H](C)O2
  10	8
COc1ccccc1CNC(=O)C[C@H]1CC[C@H]2[C@@H](COC[C@@H](O)CN2C(=O)Nc2ccc(C(F)(F)F)cc2)O1
  ?	nt
C[C@H](CO)N1C[C@H](C)[C@H](CN(C)Cc2ccc(C(=O)O)cc2)Oc2ncc(-c3ccccc3)cc2C1=O
  12	11
C[C@@H]1CCCCO[C@H](CN(C)Cc2ccc3c(c2)OCO3)[C@H](C)CN([C@@H](C)CO)C(=O)c2cc(NC(=O)CCCN(C)C)ccc2O1
  13	3

By substructure, those above with a Cl atom
Results follow in this order: Vaccinia inh	Vaccinia inh Venus
CCCC(=O)Nc1ccc2c(c1)C(=O)N(C)[C@@H]1CC[C@@H](CC(=O)NCc3ccccc3Cl)O[C@@H]1CO2
  -5	8
O=C(C[C@H]1CC[C@@H]2[C@H](COC[C@H](O)CN2S(=O)(=O)c2ccc(Cl)cc2)O1)N[C@H]1CCN(Cc2ccccc2)C1
  ?	nt

Only part of the results is shown; count on the stated rates, not on these rows.
